PINK1 modulator: PINK1 expression modulation. Potency, µM (series often up to 76.6 µM), inactives show at the highest dose activation (PINK1 increase), hits mostly activators. hit rate 0.2% among 410,000. PINK1 immunofluorescence, high-content cytometry, 24 h. AID 624263; active = well fitted activation curve with a large enough effect; inconclusive = small, poorly fitted or top-dose-only effect; inactive = flat fitted curve, though single readings scatter; cell line not stated here;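 further: potency means the concentration at half of the fitted maximal effect; % of control where 0% means no effect; nearly all actives have a fitted effect of over 65% in size; a mitochondrial uncoupler was the plate control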
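Compound titrations (5 concentrations, 24 h) on a stable cell line; DMSO and CCCP controls. Endpoint: fixed-cell PINK1 immunofluorescence with mitochondrial, cell and nuclear markers, scanned by microplate cytometer.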
CtBP-E1A inh: inhibitors of CtBP/E1A interaction; hit rate 0.49% among 340,000; activity change, % (concentration not given with the values); AlphaScreen GST-E1A/His-CtBP binding, 1536-well; active compounds read low; control for the full effect not named in the record; in the data active means activity change below about -65%; inconclusive means about -30% to -65%; inactive means above about -30%; further: on the % scale 0 is the no-effect control and ±100 the full control effect
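Protein mix (5X: 125 nM each GST-E1A, His-CtBP) was incubated with pinned compound 2 h at 37 deg C in dark, in 50 mM Tris pH 8.0 buffer with 300 mM NaCl. Glutathione donor and nickel acceptor beads followed; AlphaScreen signal read after 1 h.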
D2 potentiator: human D2 receptor positive allosteric modulation. P14416. DiscoveRx D2 beta-arrestin cells, luminescence, 90 min; 100% = 57 uM dopamine signal. potentiation, % (test concentration not listed). hit rate 0.23% among 360,000. AID 624464; active = potentiation of 50% or more; inconclusive = 30% to 50%; inactive = 30% or less;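 further: compound concentration not given in the record; tested on top of an EC20 dose of dopamine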
Target sequence (P14416 whole entry, looked up): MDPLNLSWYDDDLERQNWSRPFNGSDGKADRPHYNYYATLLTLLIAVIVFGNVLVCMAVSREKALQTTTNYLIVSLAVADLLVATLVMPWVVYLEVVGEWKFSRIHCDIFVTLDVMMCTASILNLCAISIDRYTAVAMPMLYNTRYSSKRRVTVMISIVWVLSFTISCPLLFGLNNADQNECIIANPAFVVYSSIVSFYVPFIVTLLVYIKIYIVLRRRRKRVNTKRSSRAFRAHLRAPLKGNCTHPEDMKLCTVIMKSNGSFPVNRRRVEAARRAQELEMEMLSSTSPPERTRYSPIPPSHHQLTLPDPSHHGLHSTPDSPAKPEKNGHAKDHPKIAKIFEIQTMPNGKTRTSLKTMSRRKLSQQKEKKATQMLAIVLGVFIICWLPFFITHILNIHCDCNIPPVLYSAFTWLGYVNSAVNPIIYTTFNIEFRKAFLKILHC
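PathHunter D2 cells, attached overnight at 37 deg C, received compound in DMSO plus dopamine at EC20 (50 nM final) for 90 min at 37 deg C. Beta-arrestin recruitment was read as luminescence after 1 h with detection reagent at ambient temperature.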
TRPML1 ag: activates the human TRPML1 channel | Q9GZU1 | TRPML1-expressing cells, Ca2+ dye fluorescence, FDSS; host cell line not named in the record; reference of the full effect not given here | activation, % (concentration not given with the values) | hit rate 0.12% among 410,000; in the data active = activation above about 50%; inconclusive = about 30% to 50%; inactive = below about 30%; further: 0% is about no effect; the text of the record puts the active cut at 80%
Target sequence (Q9GZU1 whole entry, looked up): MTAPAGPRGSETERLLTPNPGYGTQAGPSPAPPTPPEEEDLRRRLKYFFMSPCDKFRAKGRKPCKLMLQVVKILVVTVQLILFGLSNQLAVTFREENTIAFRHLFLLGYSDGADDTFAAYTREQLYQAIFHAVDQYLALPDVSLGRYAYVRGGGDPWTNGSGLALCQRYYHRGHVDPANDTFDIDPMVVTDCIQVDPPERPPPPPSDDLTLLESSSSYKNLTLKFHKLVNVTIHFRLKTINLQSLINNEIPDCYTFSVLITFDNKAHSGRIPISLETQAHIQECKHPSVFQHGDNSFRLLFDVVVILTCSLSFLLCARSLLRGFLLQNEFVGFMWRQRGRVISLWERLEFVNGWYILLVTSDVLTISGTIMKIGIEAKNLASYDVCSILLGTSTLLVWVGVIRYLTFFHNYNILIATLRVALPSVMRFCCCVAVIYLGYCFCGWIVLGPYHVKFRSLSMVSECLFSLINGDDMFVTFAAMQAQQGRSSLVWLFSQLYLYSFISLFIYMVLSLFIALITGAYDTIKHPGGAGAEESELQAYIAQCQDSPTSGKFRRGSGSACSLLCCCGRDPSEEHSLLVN
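TRPML1-DL cells, Tet-induced overnight (~16 h, 37 degrees C), loaded 45-90 min at room temperature with Ca8 no-wash calcium dye plus quencher. FDSS fluorescence: 10 s baseline, compound pin-transfer, 110 s agonist read, then EC80 54-4 (4uM final) and 110 s antagonist read.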
Six1-Eya2 inh: Six1/Eya2 interaction inhibition. AID 651725. AlphaScreen GST-Six1/His-Eya2 binding, biochemical; active compounds read low; control for the full effect not named in the record. hit rate 0.56% among 360,000. activity change, % (test concentration not listed). Q15475+O00167; in the data active = activity change below about -65%; inconclusive = about -30% to -65%; inactive = above about -30%; further: on the % scale 0 is the no-effect control and ±100 the full control effect
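GST-Six1 + His-Eya2 (5X stock: 250/500 nM); Tris pH 8.0, 300 mM NaCl, 0.05% BSA, 0.02% Tween 20; GSH donor/Ni acceptor beads; 1 h 37 °C dark; AlphaScreen readout.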
D2 ag: agonists of human D2 dopamine receptor (beta-arrestin). P14416. DiscoveRx PathHunter D2 beta-arrestin, luminescence, 90 min; 100% = 57 uM dopamine signal. activation, % (concentration not given with the values). hit rate 0.084% among 360,000. AID 624465; in the data active = activation above about 40%; inconclusive = about 15% to 40%; inactive = below about 15%; further: compound concentration not given in the record; the text of the record calls up to 30% inactive
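DiscoveRx PathHunter D2 beta-arrestin cells (2,100/well) attached overnight, then compound-stimulated 90 min at 37 C in HBSS/10 mM HEPES/0.1% Tween-20 buffer; beta-galactosidase complementation read by luminescence after 1 h at ambient temperature. Dopamine 57 uM final (EC100) as control.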
Active calls of the source: *; ? = inconclusive; . = no result given; [ ] = another dose, or the depositor's remark.

molecule	D2 ag	PINK1 modulator	TRPML1 ag	D2 potentiator	CtBP-E1A inh	Six1-Eya2 inh
O=C(N/N=C/c1cccnc1)c1ccc(NC(=O)c2cccc(Cl)c2)cc1	-2.9	0.7%	0.7	-4	-1	3
O=C(Cc1cccc([N+](=O)[O-])c1)Nc1ccc(C(=O)N2CCOCC2)cc1	0.4	0.7%	-0.8	-2	7	10
COc1ccc(N2CCN(C(=O)COC(=O)c3cnccn3)CC2)cc1	2.5	-1.5%	5.2	-19	5	-1
Cc1cc(=O)n2[nH]c(C)c(-c3ccccc3)c2n1	-3.5	0.6%	-1.3	-36	6	-5
O=C(c1ccc(F)cc1)N1CCN(C2=NS(=O)(=O)c3ccccc32)CC1	-0.1	0.0%	0.9	-5	24	4
COc1ccc(CCNC(=O)c2cc(-c3ccccc3O)n[nH]2)cc1OC	1.9	.	-0.3	-28	8	1
O=C(c1ccc(CS(=O)Cc2cccc(Cl)c2)o1)N1CCN(C2CCCCC2)CC1 (stereo not given)	-9.6	0.1%	-0.6	-7	0	-3
CC(C)CN(C(=O)CN1C(=O)NC(c2ccccc2)(c2ccccc2)C1=O)C1CCS(=O)(=O)C1 (stereo not given)	-2.5	1.1%	0.3	-19	1	2
COC(CNC(=O)c1ccc(-n2c(=S)[nH]c3ccccc3c2=O)cc1)OC	-0.3	0.1%	-0.3	-9	9	1
CN1C(=O)NC(c2ccc(O)cc2)C(C(=O)c2cccs2)C1(O)C(F)(F)F (stereo not given)	-1.0	4.7%[38.3 µM]	1.9	-1	-10	2
COc1ccc(C(=O)NNC(=S)NC(=O)c2cccc([N+](=O)[O-])c2)cc1	5.8	2.0%	3.9	-7	-5	-6
CCc1cc(=O)oc2cc(OCC(=O)N3CCC(C(=O)O)CC3)ccc12	-2.7	-0.1%	.	1	7	0
c1ccc(-c2ccc(OCCN3CCOCC3)cc2)cc1	-3.3	0.1%	0.1	-2	-1	-7
Cc1cccc(N2CCN(S(=O)(=O)c3ccc4c(c3)C(C)(C)C(=O)N4C)CC2C)c1 (stereo not given)	-1.0	0.2%	4.2	-6	-12	-12
Cc1ccn(CCNC(=O)C2CCC(=O)N(CCc3ccc(Cl)cc3)C2)n1 (stereo not given)	-1.0	1.8%	0.0	16	0	2
O=C(Cc1cccs1)Nc1nc(-c2ccc(F)cc2F)cs1	-2.1	-0.5%[38.3 µM]	1.5	-4	12	3
O=C(OCC(=O)N1CCN(c2ccccc2)CC1)c1ccc([N+](=O)[O-])s1	1.4	0.9%	-1.7	-1	.	-12
O=C(Nc1nc(-c2ccc(S(=O)(=O)N3CCCC3)cc2)cs1)c1ccco1	0.7	0.0%	-0.6	3	-85*	-69*
COc1ccc(C(=O)c2c[nH]c3ccccc23)cc1	-4.9	7.8%	-0.1	-11	9	-2
CCOc1ccc(CCN2C(=S)N([C@@H](Cc3ccc(O)cc3)CN3CCC[C@@H]3CN3C(=S)NC[C@@H]3Cc3ccccc3)C[C@@H]2Cc2ccccc2)cc1	-3.7	3.6%	0.2	-12	-8	-10
OCCOCCn1c(CCNc2nc(-c3ccc(Cl)cc3)cs2)nc2cc(Cl)c(Cl)cc21	-2.4	2.0%	-0.7	-3	1	1
CC(NC(=O)CNC(=O)[C@@H]1Cc2ccccc2CN1)c1ccccc1 (stereo not given in full)	-3.1	2.2%	0.6	3	0	3
O=C(Nc1cccc(F)c1)Nc1c[nH]c(=O)[nH]c1=O	-3.2	-0.3%	-0.5	-5	0	-2
CN(C)c1cccc2c1C(=O)c1ccccc1C2=O	-6.6	2.2%	3.6	-20	-85*	-86*
CN1CCC(N(C)S(=O)(=O)c2ccc(NC(=O)COc3ccc(F)cc3Cl)cc2)CC1	-4.7	-0.4%	0.7	-29	-11	-2
CCc1c(C)nc(SCC(=O)NC2CCCC2)[nH]c1=O	-3.4	3.3%	-0.7	-3	4	-4
CCS(=O)(=O)c1ccc2oc(SCC(=O)N3CCCCC3)nc2c1	3.5	-0.1%	0.9	2	-1	6
COc1ccccc1/C=C1\SC(=S)N(NS(=O)(=O)c2ccc(C)cc2)C1=O	-3.6	-1.1%	2.4	-6	-7	-14
O=C(CNc1cccc(F)c1)N1CCc2ccccc2C1	4.2	-2.5%	0.0	-11	2	1
Cc1cccc(N(CC(=O)NCCSc2ccccn2)S(=O)(=O)c2ccccc2)c1	-1.7	3.4%	-0.4	-5	9	0
C/C(CC(=O)Nc1ccc(F)cc1)=N\NC(=O)COc1ccccc1	1.3	-0.8%	0.6	-13	9	6
CC(C)(C)c1ccc(NC(=O)c2ccc3c(c2)S(=O)(=O)c2ccccc2C3=O)cc1	1.1	0.9%	0.7	-4	.	9
O=C(COC(=O)c1cccc(N2C(=O)c3ccccc3C2=O)c1)Nc1ccccc1	-4.0	4.4%	0.9	11	-4	0
O=C(CNC(=S)N(Cc1ccccc1)Cc1cccnc1)NCCN1CCOCC1	-3.6	0.0%	-0.4	-8	5	12
CCOC(=O)c1ccc(NS(=O)(=O)c2c(C)n[nH]c2C)cc1	0.7	0.8%	1.0	4	1	5
COc1ccccc1CCC(=O)OC(C)C(=O)Nc1c(C)n(C)n(-c2ccccc2)c1=O (stereo not given)	-0.9	0.9%	-1.0	8	9	2
CN(C)CCCNC(=O)c1ccc2[nH]c3ccccc3c2c1	-1.6	0.3%	0.1	-18	2	1
CN(C(=O)COC(=O)c1ccc2c(c1)OCCO2)c1ccccc1	-3.5	0.9%	-0.3	-7	-12	22
Cc1ccc(-c2cc3nc(C)cc(C)n3n2)cc1	2.5	-2.9%	1.0	-5	2	0
CC(=NNC(=S)N1CCCCC1)c1ccccn1	-8.4	0.7%	-0.2	-33	-16	-87*
Cc1ccc(NC(=O)CN2C(=O)NC(C)(CC(C)C)C2=O)cc1F (stereo not given)	-2.2	-0.2%	0.4	-5	5	11
CN(C)C(=O)N1CCC(C(=O)NCc2cccs2)CC1	-1.7	.	0.7	-6	7	2
COC(=O)CN(C(=S)Nc1ccc(Cl)cc1)C1CC(=O)N(c2ccc(OC)cc2)C1=O (stereo not given)	-1.9	-0.5%[38.3 µM]	-0.4	-2	-11	-1
COc1ccc(CNC(=O)CN2CCC(n3nnc4cc(F)ccc43)CC2)cc1	0.3	2.9%	-1.0	-16	-9	-1
COc1ccc(CC(=O)N2CCC(c3ccccc3)C2)cc1 (stereo not given)	4.4	-0.7%	-0.7	-1	9	2
Cn1c(-c2ccccc2)c(/C=N/NC(=O)c2cccnc2)c2ccccc21	-0.4	12%	2.4	-10	-9	-9
O=c1ccc(=O)n(-c2ccccc2)[nH]1	-2.3	-0.3%	0.1	2	6	-1
CCCC(c1nnnn1CS(=O)(=O)c1ccc(C)cc1)N1CCN(C2CCCC2)CC1 (stereo not given)	-2.1	-1.2%	0.6	-20	-1	5
COc1ccc(NC(=O)Nc2cccc3c2O[C@H](CN(C)S(=O)(=O)c2c(C)noc2C)[C@@H](C)CN([C@H](C)CO)C3=O)cc1	-0.1	0.4%	0.5	.	0	6
CC(C)c1ccc([C@@H]2O[C@H](CCc3ccccc3)CC3=C2C(=O)OC(C)(C)O3)cc1	.	3.5%	0.1	.	2	5

The list goes on:
molecule	D2 ag	PINK1 modulator	TRPML1 ag	D2 potentiator	CtBP-E1A inh	Six1-Eya2 inh
CC(=O)Nc1cccc(C(=O)OCc2ccccc2)c1	-3.4	-3.6%	0.7	-11	10	0
Cc1ccc(C(=O)COC(=O)CN2C(=O)C3C4CCC(C4)C3C2=O)cc1[N+](=O)[O-] (stereo not given)	-12	1.9%	0.1	-35	1	7
N#C/C(=C1/CCCCCN1)c1nnc2n1CCCCC2	-0.1	.	0.6	-12	1	2
COc1cc2c(cc1OC)CN(CC(=O)Nc1ccc3c(c1)OCO3)CC2	-1.8	1.3%	1.4	-24	-2	-16
CNc1ncnc2c1ncn2[C@H]1CN(Cc2cccc3ccccc23)C[C@@H](CO)O1	-2.5	0.3%	0.0	3	-2	-8
COc1cc(OC)cc(C(=O)N2CCCc3ccccc32)c1	-3.5	-1.5%[38.3 µM]	-0.3	-6	10	-1
N#CCCN(C(=O)COC(=O)c1ccc(S(=O)(=O)N2CCCCCC2)cc1)c1ccccc1	-2.4	0.2%	0.1	-8	0	5
COc1ccc(Cl)cc1NC(=O)CCS(=O)(=O)c1ccc(C)cc1	-3.9	-1.5%	-1.1	-19	5	3
COc1cc(C(=O)OCC(=O)NC2CC2)ccc1OCCC(C)C	-3.0	0.4%	0.0	-1	.	5
COc1ccc(NC(=O)CN2C(=O)NC(C)(c3ccc4c(c3)OCO4)C2=O)cc1S(N)(=O)=O (stereo not given)	-0.8	0.0%	-0.1	-1	3	-3
O=C(O)CSc1nnc(Nc2ccccc2)n1-c1ccccc1	-3.8	0.7%	-0.7	-4	0	-2
O=C(CCNS(=O)(=O)c1cccc2nsnc12)N1CC(=O)N(CCc2ccccc2)C(=O)C1	-2.6	-3.8%	-1.2	4	2	-1
N#Cc1ccc(NC(=O)COC(=O)CCc2ccc(S(=O)(=O)N3CCCCC3)cc2)cc1	-0.9	1.1%	2.2	15	23	3
Nn1c(Cc2cccc3ccccc23)nnc1SCc1ccccc1	0.0	7.1%	0.3	1	-6	0
Cc1ccc(C2=N/C(=C/c3cccs3)C(=O)N2Nc2ccccc2)cc1	-5.2	0.6%[38.3 µM]	2.6	-15	?	-23
O=C(NCC(c1cccnc1)N1CCN(c2ccccc2F)CC1)c1cccc(Cl)c1 (stereo not given)	3.6	-2.3%	-1.6	7	-8	-10
CC(=O)c1cccc(NC2c3ncccc3C(=O)N2Cc2ccco2)c1 (stereo not given)	-0.5	-1.5%[38.3 µM]	-0.1	-6	-6	-2
Cc1ccc2cccc(Oc3ccc([N+](=O)[O-])cc3[N+](=O)[O-])c2n1	-1.0	9.5%	3.6	-3	9	-9
O=C(CSc1nc2ccccc2n1-c1ccccc1)Nc1ncc(Cl)cc1Cl	-3.4	5.9%	5.1	1	6	-9
CCCS(=O)(=O)NCCc1cc2c(OC)ccc(OC)c2[nH]c1=O	-4.0	-0.6%	-0.7	1	4	4
O=C1[C@H]2[C@@H](c3ccccc3)N[C@]3(CCCN(Cc4ccco4)C3=O)[C@H]2C(=O)N1Cc1ccccc1	-3.5	0.5%	-0.3	-7	-16	-6

Profiles from above. Order of screens: D2 ag | PINK1 modulator | TRPML1 ag | D2 potentiator | CtBP-E1A inh | Six1-Eya2 inh
Record of `COc1cc(C(=O)OCC(=O)NC2CC2)ccc1OCCC(C)C` → -3.0 | 0.4% | 0.0 | -1 | . | 5
Record of `COc1ccc(Cl)cc1NC(=O)CCS(=O)(=O)c1ccc(C)cc1` → -3.9 | -1.5% | -1.1 | -19 | 5 | 3
Record of `O=C(CSc1nc2ccccc2n1-c1ccccc1)Nc1ncc(Cl)cc1Cl` → -3.4 | 5.9% | 5.1 | 1 | 6 | -9

Assay outcomes from PubChem.
